Compound activity: PubChem BioAssay, National Center for Advancing Translational Sciences (NCATS)
Six1-Eya2 inh: blocks human Six1 binding to Eya2; Q15475+O00167; AlphaScreen GST-Six1/His-Eya2 binding, biochemical; hits give low values; control for the full effect not named in the record; actives 0.56% (n = 360,000); AID 651725; activity change, % (no concentration beside the values); in the data active = activity change below about -65%; inconclusive = about -30% to -65%; inactive = above about -30%; also: % is scaled to controls: 0 for no effect and ±100 for the full control effect; compound concentration not given in the record
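Six1/Eya2 binding was read as AlphaScreen signal after compounds were pinned into GST-Six1 plus His-tagged Eya2 (5X stock 250/500 nM) in pH 8.0 Tris/NaCl/TCEP buffer, beads added, then incubated 1 h, 37 C, dark.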
D2 potentiator: potentiates the human D2 dopamine receptor allosterically. P14416. DiscoveRx D2 beta-arrestin cells, luminescence, 90 min; 100% = 57 uM dopamine signal. potentiation, % (concentration not given with the values). actives 0.23% (n = 360,000); active = potentiation of 50% or more; inconclusive = 30% to 50%; inactive = 30% or less;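 also: compound concentration not given in the record; tested on top of an EC20 dose of dopamine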
Target sequence (P14416 whole entry, looked up): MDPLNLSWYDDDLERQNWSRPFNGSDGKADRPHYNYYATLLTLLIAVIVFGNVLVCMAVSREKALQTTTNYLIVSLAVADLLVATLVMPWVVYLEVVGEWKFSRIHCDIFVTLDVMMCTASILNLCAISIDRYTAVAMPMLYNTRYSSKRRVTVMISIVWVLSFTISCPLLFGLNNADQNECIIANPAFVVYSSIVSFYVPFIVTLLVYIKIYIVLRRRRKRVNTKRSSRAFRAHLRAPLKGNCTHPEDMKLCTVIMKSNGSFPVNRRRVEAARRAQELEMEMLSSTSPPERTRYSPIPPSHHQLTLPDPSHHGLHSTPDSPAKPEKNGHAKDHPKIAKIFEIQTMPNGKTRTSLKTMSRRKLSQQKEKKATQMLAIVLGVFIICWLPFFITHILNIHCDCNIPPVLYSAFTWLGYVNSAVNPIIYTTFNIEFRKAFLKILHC
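PathHunter beta-arrestin assay in DiscoveRx D2 cells. Compounds were added with an EC20 of dopamine (50 nM final) for 90 min at 37 deg C. Luminescence was read 1 h after detection reagent, with 57 uM dopamine as the EC100 control.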
TRPML1 blocker: inhibitors of human TRPML1 channel. activity change, negative = inhibition, % (no concentration beside the values). AID 624415. Q9GZU1. TRPML1-inducible cells, Ca2+ dye fluorescence, FDSS; hits give low values; inhibition of EC80 agonist-evoked calcium signal. actives 0.02% (n = 390,000); in the data active means activity change below about -50%; inconclusive means about -30% to -50%; inactive means above about -30%;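 also: stimulus is agonist 54-4 at its EC80 concentration; % is scaled to controls: 0 for no effect and ±100 for the full control effect; compound concentration not given in the record; the text of the record puts the active cut at -80%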
Target sequence (Q9GZU1 whole entry, looked up): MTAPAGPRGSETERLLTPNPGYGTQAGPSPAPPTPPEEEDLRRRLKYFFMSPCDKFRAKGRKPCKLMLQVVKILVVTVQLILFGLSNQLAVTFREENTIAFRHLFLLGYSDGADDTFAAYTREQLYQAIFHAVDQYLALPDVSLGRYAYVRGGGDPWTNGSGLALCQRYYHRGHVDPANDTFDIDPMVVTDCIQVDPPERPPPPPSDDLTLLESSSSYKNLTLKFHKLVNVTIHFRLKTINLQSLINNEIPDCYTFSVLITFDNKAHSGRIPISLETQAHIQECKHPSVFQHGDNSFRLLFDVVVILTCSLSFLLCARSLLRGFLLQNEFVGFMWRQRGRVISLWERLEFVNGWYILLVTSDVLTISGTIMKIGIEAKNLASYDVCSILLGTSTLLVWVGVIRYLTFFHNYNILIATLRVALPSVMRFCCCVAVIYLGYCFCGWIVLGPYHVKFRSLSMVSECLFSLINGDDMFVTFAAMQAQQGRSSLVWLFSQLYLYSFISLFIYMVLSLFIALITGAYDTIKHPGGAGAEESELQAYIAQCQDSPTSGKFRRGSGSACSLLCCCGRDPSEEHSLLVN
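Calcium fluorescence in TRPML1-DL cells induced overnight with Tet: a 110 s read after compound pin addition, then a 110 s antagonist read after challenge with 54-4 at 4 uM final (EC80).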
TRPML1 ag: agonists of human TRPML1 channel. actives 0.12% (n = 410,000). AID 624414. Q9GZU1. TRPML1-expressing cells, Ca2+ dye fluorescence, FDSS; host cell line not named in the record; reference of the full effect not given here. activation, % (test concentration not listed); in the data active = activation above about 50%; inconclusive = about 30% to 50%; inactive = below about 30%; also: 0% is about no effect; the text of the record puts the active cut at 80%
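Cells: TRPML1-DL, 1X Tet inducer, ~16 h at 37 degrees C/5% CO2. Dye: ABD Ca8 no-wash + quencher, 45-90 min RT. Read: 10 s baseline, compound add, 110 s agonist phase; 54-4 EC80 (4uM final), 110 s antagonist phase.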
D2 agonist: agonists of human D2 dopamine receptor (beta-arrestin) | P14416 | DiscoveRx PathHunter D2 beta-arrestin, luminescence, 90 min; 100% = 57 uM dopamine signal | activation, % (test concentration not listed) | actives 0.084% (n = 360,000); in the data active = activation above about 40%; inconclusive = about 15% to 40%; inactive = below about 15%; also: compound concentration not given in the record; the text of the record calls up to 30% inactive
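Agonist mode: compounds alone added to overnight-plated D2 PathHunter cells for 90 min at 37 C, with 57 uM final dopamine (EC100) defining full response. Beta-arrestin recruitment detected by chemiluminescent reagent, read after 1 h at ambient temperature.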
PINK1 expr mod: modulators of PINK1 expression; PINK1 immunofluorescence, high-content cytometry, 24 h; Potency, µM (top dose mostly 76.6 µM), for the others: top-dose activation (PINK1 increase), hits mostly activators; actives 0.2% (n = 410,000); active = well fitted activation curve with a large enough effect; inconclusive = small, poorly fitted or top-dose-only effect; inactive = flat fitted curve, though single readings scatter; cell line not stated here;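 also: potency is read from the fitted curve at half-maximal effect; % of control where 0% means no effect; nearly all actives have a fitted effect of over 65% in size; a mitochondrial uncoupler was the plate control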
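Compound titrations (5 concentrations, 24 h) on a stable cell line; DMSO and CCCP controls. Endpoint: fixed-cell PINK1 immunofluorescence with mitochondrial, cell and nuclear markers, scanned by microplate cytometer.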
* = called active by the depositor; u = inconclusive; x = not tested or not shown; & = joins results of further samples; [ ] = remark or other dose.

SMILES	Six1-Eya2 inh	D2 potentiator	TRPML1 blocker	TRPML1 ag	D2 agonist	PINK1 expr mod
Cc1c(Cl)cccc1NC(=O)c1ccc2nc(C(C)C)oc2c1	x	x	25.3	2.5	x	-0.4%
COc1ccc2nc(-c3ccco3)c(-c3ccco3)nc2c1	-1.0	u	-2.8	-0.8	2.7	-1.4%
NS(=O)(=O)c1ccc(Nc2ccccc2)c([N+](=O)[O-])c1	-14.3	-1.0	14.8	-0.3	2.9	0.2%
CC(C)Oc1ccc(CNS(=O)(=O)c2csc(C(N)=O)c2)cc1	-2.1	-8.1	-0.1&4.9	0.5&-0.8	4.6	0.5%&0.7%
O=C1OCCC1=Cc1ccccc1	-0.4	0.2	9.1	0.8	1.1	2.3%
O=C(NCCNc1ccc([N+](=O)[O-])cc1Cl)c1ccccc1F	-1.1	-18.0	-5.6	-0.5	-3.2	-0.8%
c1ccc(NCCCNc2ccccc2)cc1	-17.8	-10.9	-0.1	1.2	-2.8	8.8%
COC(=O)c1ccccc1NC(=O)c1ccc2c(c1)OCCO2	3.4	0.8	2.4	1.8	0.1	-0.6%
O=C(Nc1cccc(Cl)c1)N1CCN(C2c3ccccc3-c3ccccc32)CC1	-8.3	-3.7	17.8	0.6	-6.6	3.1%
O=[N+]([O-])c1ccc(CN2CC(N3CCC(Cc4ccccc4)CC3)CS2(=O)=O)cc1 (configuration not stated)	-13.5	0.6	14.8	-0.4	-2.7	-0.1%
CCCC(NCC(=O)Nc1ccccc1C(=O)NC1CC1)c1ccccc1 (configuration not stated)	1.8	-8.3	0.7	-0.8	-1.7	-0.9%
NC(=O)C1=C[C@@H](c2ccccc2)C[C@@H](OCCCCO)O1	8.3	-16.4	-10.4	-0.8	1.2	-0.3%
COc1cccc(/C(N)=N/OC(=O)Cc2ccccc2[N+](=O)[O-])c1	5.1	3.3	-20.0	1.8	4.4	0.4%
CCN1C(=C(C#N)C#N)C=Cc2ccccc21	4.3	-1.6	28.7	-0.1	-4.5	2.1%
Cc1noc(C)c1NC(=O)Nc1ccc2c(c1)C(=O)N([C@H](C)CO)C[C@@H](C)[C@@H](CN(C)S(=O)(=O)c1cn(C)cn1)OCCCC[C@H](C)O2	-1.9	x	x	x	-3.6	0.4%
CCN(CC)c1ncnc2sc3c(c12)CCC3	-5.3	-6.4	-14.7	2.3	-3.7	-0.1%
CCCCC(CC)C1OCC(CN2CCCC2)O1 (configuration not stated)	1.8	-1.7	-14.9	0.1	-0.3	4.3%
C(=N\N=C\c1cccs1)/c1cccs1	-4.8	8.5	15.5	-0.4	6.0	7.1%
COc1cccc(-c2cnc(C(O)c3cccc(CN4CCCCC4)c3)[nH]2)c1 (configuration not stated)	-15.3	-10.9	x	-0.7	-4.1	2.2%
COc1ccc(CCNC(=O)c2ccc(Cn3c(=O)c4ccccc4n(Cc4cc(C)ccc4C)c3=O)cc2)cc1OC	x	x	4.7	-0.3	x	-0.1%
COc1ccc(-c2nc3scc(-c4ccccc4)n3n2)cc1	1.6	-4.6	-12.0	2.6	-3.8	6.5%
COc1cccc(CNC(=O)c2cc(-c3cccs3)nc3ccccc23)c1	x	x	-4.4	2.6	x	8.4%
O=C(CN1C(=O)/C(=C/c2cccc(Br)c2)SC1=S)N1CCCC1	-3.7	-5.9	-7.7	-0.2	-5.0	6.2%
O=C1C2C3C=CC(C4CC34)C2C(=O)N1/N=C/c1ccc(-c2ccc(F)cc2[N+](=O)[O-])o1 (configuration not stated)	-17.7	-15.8	3.0	-0.9	-2.6	1.4%
CN1CCN(c2ccc(NC(=O)c3ccc(Cl)cc3)cn2)CC1	4.5	4.3	0.7	0.3	2.5	0.7%
OC[C@@H]1CN(Cc2ccc(-c3ccccc3)cc2)C[C@H](n2cnc3c(Nc4ccccc4)ncnc32)O1	-12.2	10.8	x	-0.3	u	1.3%
N=c1c2c(-c3ccccc3)c(-c3ccccc3)n(Cc3ccco3)c2ncn1CCO	-14.8	-10.4	14.3	3.5	-4.9	-0.8%
COc1ccc(NC(=O)CN(C)CC(=O)Nc2sc3c(c2C#N)CCC3)cc1	-1.6	-0.1	9.9	0.0	7.2	3.2%
Cc1cccc(OCC(=O)N2CCC(c3ccccc3)C2)c1 (configuration not stated)	2.9	0.9	-2.8	0.2	-0.9	x
Cc1ccc(S(=O)(=O)N2[C@@H](c3ccc(F)cc3)C(C(=O)O)=CC[C@H]2c2cccs2)cc1	4.1	-2.3	-2.0	-0.9	-3.8	-1.4%
CC1(C)Cc2c(cnn2-c2ccccc2)C(NC(=O)C2(C(N)=O)CC2)C1 (configuration not stated)	-0.5	-1.1	-7.2	-0.2	3.9	2.2%
CN(C)CCCN(C(=O)c1cc2ccccc2oc1=O)c1nc2c(F)cccc2s1	-8.1	-32.8	-4.5	0.0	-4.3	-2.2%
Cc1ccc(-c2cc(-c3ccccc3)nc(NN)n2)cc1	6.8	-17.9	-8.1	1.0	-15.8	-1.7%
O=C(CNC(=O)c1ccc(Cl)cc1)OCCN1C(=O)c2ccccc2C1=O	11.0	-0.2	9.5	-0.4	-1.5	-0.5%
CCNc1nc(NCC)n2c(SCC(=O)N(CC)C3CCCCC3)nnc2n1	-21.2	-4.1	-14.6	0.9	-6.4	2.4%
CCOc1ccc(C(=O)N2CCN(CCc3ccccc3)CC2)cc1OCC	0.6	-17.4	-4.2	0.0	0.8	3.3%
CCc1c(O)cc2n(c1=O)-c1ccccc1C2(C)C	-2.6	-10.3	7.0	4.4	-1.7	-0.4%
CC1(C)CC2CC(C)(CN2C(=O)CN2C(=O)c3ccccc3C2=O)C1 (configuration not stated)	8.9	-11.4	-11.8	-0.4	-1.4	-0.4%
Cc1cccc(OCCSc2nc3c([nH]2)c(=N)ncn3Cc2ccccc2)c1	-4.5	-2.5	41.0	4.7	-3.8	1.9%
COc1cc(C)nc(N(Cc2ccccc2)S(=O)(=O)c2ccc(C)cc2)n1	-5.6	-0.9	-18.7	4.8	-0.6	0.7%
Nc1ccc(NC(=O)c2ccccc2)c2c1C(=O)c1ccccc1C2=O	-5.0	-7.8	8.7	-0.5	-1.4	8.4%
CCCCN(CC)C(=O)C1CCCN(c2ncnc3c2nc2n3CCCCC2)C1 (configuration not stated)	x	x	0.8	-0.1	x	3.4%
CCOC(=O)N1CCN(C(=O)C2CCC(=O)N2C(C)C)CC1 (configuration not stated)	3.4	-0.4	-3.1	0.8	-1.0	-5.6%[38.3 µM]
COCCCNC(=O)CCC(=O)Nc1ccc2nc(N3CCOCC3)cc(C)c2c1	0.0	0.5	-14.3	0.6	-0.8	-2.3%
CC(C)(C)NC(=O)COc1ccc(S(=O)(=O)N2CCCC2)cc1	7.8	-1.1	-1.0	-0.7	0.7	2.2%
COC(=O)[C@@H](NCc1ccc(OC)c(B(O)O)c1)C(C)C	4.7	x	-12.7	-0.3	-1.8	-0.1%
O=C(COC(=O)/C=C/c1cccc(C(F)(F)F)c1)NC(=O)NCc1ccccc1	9.5	-2.1	16.8	1.1	-3.1	u
Cc1ccccc1OCCC(=O)Nc1ccc(Cl)cc1F	15.6	-13.8	9.3	2.0	-1.6	3.0%
Cc1ccc(C)c(NC(=O)C2C3C=CC(O3)C2C(=O)O)c1 (configuration not stated)	-16.6	-7.3	-2.6	0.5	1.8	0.0%
Cc1noc(C)c1COc1ccc(C(=O)OCC(=O)N2CC(=O)Nc3ccccc32)cc1	-3.7	5.9	43.2	-0.5	-0.5	5.7%[38.3 µM]
Cc1cc2c(=O)n(C)c(SCC(=O)NC3CCCC3)nc2s1	10.2	-10.7	-1.7	-1.1	-2.6	3.1%
CC(=O)c1ccc(NC(=O)CSCC(=O)Nc2ccc3ccccc3c2)cc1	0.3	-9.8	16.5	1.2	1.5	1.3%
CCn1c(C)nnc1SCC(=O)Nc1ccc(Cl)cc1	7.7	-6.0	x	x	4.2	0.4%
CCC(=O)c1cccc2c1N=CC1=C(CC(C)(C)CC1=O)N2	3.0	-2.3	10.2	0.6	-0.6	-3.0%[38.3 µM]
CC(Nn1cnnc1)c1cc(Cl)ccc1O (configuration not stated)	-1.2	-2.5	-8.8	0.2	-3.1	-1.2%
Cc1c(CCC(=O)N2CCC(C(=O)O)(c3ccccc3)CC2)c(=O)oc2cc3oc4c(c3cc12)CCCC4	-0.5	-30.6	x	x	-4.5	1.4%
CN(CC(=O)Nc1cccc(F)c1)C(=O)COc1cccc2c1OC(C)(C)C2	-3.9	-23.9	2.9	0.9	-5.4	-0.5%
COc1cc(C(=S)N2CCCCC2)ccc1O	-0.1	5.5	0.8	0.5	0.9	x
Brc1ccc(-c2nnc3sc(CNCc4ccc5c(c4)OCO5)cn23)cc1	1.6	-0.7	-1.1	1.2	-5.1	0.8%
Cc1ccnc(NC(=O)CCC(=O)N(CC(=O)NCc2ccc(F)cc2)Cc2ccccc2)c1	-0.8	-7.6	-12.2	-0.3	-0.3	-0.2%

An excerpt of these results, as labelled records:
> CN(CC(=O)Nc1cccc(F)c1)C(=O)COc1cccc2c1OC(C)(C)C2
  Six1-Eya2 inh: -3.9; D2 potentiator: -23.9; TRPML1 blocker: 2.9; TRPML1 ag: 0.9; D2 agonist: -5.4; PINK1 expr mod: -0.5%

> COc1cc(C(=S)N2CCCCC2)ccc1O
  Six1-Eya2 inh: -0.1; D2 potentiator: 5.5; TRPML1 blocker: 0.8; TRPML1 ag: 0.5; D2 agonist: 0.9; PINK1 expr mod: x

(cont.)
SMILES	Six1-Eya2 inh	D2 potentiator	TRPML1 blocker	TRPML1 ag	D2 agonist	PINK1 expr mod
CCc1nc(NCc2cccs2)c2nnn(Cc3ccccc3)c2n1	-1.7	-5.2	4.1	-0.4	-3.0	8.1%
COc1ccc(OCc2cc(C(=O)NCC(C)(C)N3CCOCC3)no2)c(Cl)c1	-4.3	-3.3	-5.0	0.6	-7.0	2.0%
COc1ccc(/C=N/NC(=O)c2cccc(NC(=O)c3ccccc3Cl)c2)cc1	-16.8	-2.9	8.8	0.8	1.2	7.5%
CCN(CC(=O)Nc1cccc(C(C)=O)c1)S(=O)(=O)c1ccccc1	5.7	-4.2	-5.3	0.6	-0.6	0.9%
COCCN1C(=O)/C(=C/c2ccc(Oc3ccc([N+](=O)[O-])cn3)c(OC)c2)SC1=Nc1ccccc1	-1.7	5.1	-2.0	-0.6	-2.2	2.1%[38.3 µM]
CCCCCn1c(=O)c2c(nc3n2CCN3c2ccc(Br)cc2)n(C)c1=O	x	x	-7.7	-0.6	x	2.1%
COC(=O)c1ccccc1NC(=O)C1CCCN(c2ncnc3onc(C)c23)C1 (configuration not stated)	x	x	3.8	0.4	x	-1.3%
Cc1oc(-c2ccccc2Cl)nc1CSCC(=O)N1CCCC1	-1.8	-8.1	-17.1	2.0	4.7	-0.1%

Not a retest: entries from further up.
SMILES	Six1-Eya2 inh	D2 potentiator	TRPML1 blocker	TRPML1 ag	D2 agonist	PINK1 expr mod
COC(=O)c1ccccc1NC(=O)C1CCCN(c2ncnc3onc(C)c23)C1 (configuration not stated)	x	x	3.8	0.4	x	-1.3%
Cc1oc(-c2ccccc2Cl)nc1CSCC(=O)N1CCCC1	-1.8	-8.1	-17.1	2.0	4.7	-0.1%
